High-throughput results (PubChem)
NPYLR7 ag: activates Aedes aegypti NPYLR7 receptor; AID 1259423; 270,000 compounds, 0.15% hits; HEK293T NPYLR7/Galpha15, GCaMP6s calcium fluorescence; activation, % at 10 µM; in the data active means activation above about 40%;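 further: 0% = vehicle and 100% = reference agonist at the receptor; some compounds past the cut are filed as inactive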
NPYLR7 ag max-min: recorded beside NPYLR7 ag, whose call it bears; activation, %; measured here: Max-Min RFU normalised activation; some inactives read as strong as hits;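 span of the calcium signal over five minutes; 0% = vehicle and 100% = native peptide agonist; compound fluorescence can raise it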
Starred values were filed as active, the others as inactive. An excerpt (hit frequency here may not be typical).

#1 Cc1nc(C#Cc2ccnc(Cl)c2)c(C)n1-c1ccc(OC(F)(F)F)cc1
#2 CCOC(=O)c1c(NC(=O)c2cccs2)sc2c1CCC(C)C2 (stereo unspecified)
#3 C=CCNS(=O)(=O)c1ccc(Br)cc1
#4 COc1ccc(-c2ncnc3c(C)csc23)c(OC)c1
#5 CC1(C)[C@H]2CC=C(CN3CCC(CCC(=O)NCc4cccnc4)CC3)[C@@H]1C2
#6 CCN(CCc1nc2ccc(OC)cc2[nH]1)C(=O)c1cc(C)nc(C)n1
#7 CC(=O)Nc1ccsc1C(=O)N1CCC(Cc2cccc(C(N)=O)c2)C1 (stereo unspecified)
#8 Cc1c(C(=O)N2CCCC(c3ccn[nH]3)C2)nnn1Cc1ccccc1 (stereo unspecified)
entry no.	1	2	3	4	5	6	7	8
NPYLR7 ag	-7	-6	2	0	4	0	-4	-4
NPYLR7 ag max-min	-11	-8	0	2	0	-4	-5	-4

#9 O=C(CC1CC2CCC1C2)NNC(=O)C1CC1 (stereo unspecified)
#10 Cc1noc(C2CCN(C(C)c3ccccc3F)CC2)n1 (stereo unspecified)
#11 COc1ccc(-c2nc3ccc(Br)cn3c2NC(C)(C)C)cc1OC
#12 CC(c1nc2ccccc2c(=O)[nH]1)N1CCN(S(=O)(=O)c2cccc(F)c2)CC1 (stereo unspecified)
#13 Cc1cc(NC(=O)Nc2ccc(Sc3ccccc3)cc2C)no1
#14 CCNC(=O)C1(C)CCCN(Cc2cccc3c2OCO3)C1 (stereo unspecified)
#15 CC(C)(C)C(=O)N1CCC(C(=O)Nc2cc(C(C)(C)C)nn2-c2ccc(F)cc2)CC1
#16 Cc1cnc(C(=O)N2CCc3c([nH]c4ccccc34)C2c2ccc(F)cc2)cn1 (stereo unspecified)
entry no.	9	10	11	12	13	14	15	16
NPYLR7 ag	5	1	12	11	0	1	14	7
NPYLR7 ag max-min	2	1	8	15	6	0	16	4

#17 Cc1ccc(C=NN=C2NC(=O)C(CC(=O)O)S2)s1 (stereo unspecified)
#18 CCOC(C)CN(C)C(=O)c1ccc(Cl)cc1C (stereo unspecified)
#19 O=[N+]([O-])c1cccc(C2c3cccn3CCCN2Cc2ccc3c(c2)OCCO3)c1 (stereo unspecified)
#20 O=C(Nc1cnc2ccccc2c1)c1nn2c(C(F)(F)F)cc(-c3ccccc3)nc2c1Cl
#21 c1ccc(-c2cc(-c3nc(-c4cccnc4)no3)c3ccccc3n2)cc1
#22 Fc1ccccc1Oc1cc(N2CCC(N3CCCCC3)CC2)ncn1
#23 O=C(C1CCN(S(=O)(=O)N2CCCCC2)CC1)N1CCOCC1
#24 Cc1cc(C)n(-c2ccc(CC(=O)Nc3ccc(F)cc3)cc2)n1
entry no.	17	18	19	20	21	22	23	24
NPYLR7 ag	-11	3	8	-1	-1	-7	21	-2
NPYLR7 ag max-min	-18	0	7	-6	-4	0	12	-1

#25 CCN1CCN(C(c2ccc(OC)cc2)c2c(O)cc(C)n(CCOC)c2=O)CC1 (stereo unspecified)
#26 CCCc1cc(C(=O)N2CCc3cc(OC)c(OC)cc3C2)n[nH]1
#27 Cc1nn2cc(-c3[nH]ncc3[N+](=O)[O-])cnc2c1C(N)=O
#28 CN(C)c1ccc(N2C(=O)CSC2=S)cc1
#29 CCC(C)C1c2c(n[nH]c2C)OC(=N)C1C#N (stereo unspecified)
#30 Cc1ccsc1[C@@H]1CCN(C(=O)CCc2nc3ccccc3[nH]c2=O)C[C@H]1O
#31 CCCCn1c(C(=O)Nc2ccc3c(c2)OCCO3)cc2c(=O)n(C)c(=O)n(C)c21
#32 Cc1cc(C)cc(-n2c(SCC(N)=O)nc3c(c2=O)SCC3)c1
entry no.	25	26	27	28	29	30	31	32
NPYLR7 ag	15	4	-11	8	5	1	-4	-8
NPYLR7 ag max-min	5	1	-12	9	6	-5	-4	-12

#33 COc1ccc(-c2nc3ccc(C)cn3c2NC(=O)C2C[C@H]2c2ccccc2)cc1OC (stereo partly specified)
#34 Cc1nc(N2CCCC(NCc3cccs3)CC2)nc2ccc(F)cc12 (stereo unspecified)
#35 COCCn1nc(C(=O)O)ccc1=O
#36 CCOc1ccc(-c2cccc3ccnn23)nn1
#37 CCCN1C(=O)C(c2c(C(C)C)[nH]n(-c3ccc(Cl)c(Cl)c3)c2=O)=C([n+]2ccc(C)cc2)C1=O
#38 CCOC(CCNC(=O)CNC(=O)c1ccc2ccccc2c1)C1CCCC1 (stereo unspecified)
#39 Cc1ccc2nc(CCNC(=O)[C@@]34CC[C@@](C)(OC3=O)C4(C)C)[nH]c2c1
#40 CCC(C)(C)NC(=O)CCc1c(C)nc2c(c(C)nn2C)c1C
entry no.	33	34	35	36	37	38	39	40
NPYLR7 ag	-3	7	0	8	-7	-6	-7	9
NPYLR7 ag max-min	-3	2	19	3	3	-8	-9	5

#41 O=C(Nc1cc(-c2ccc(I)cc2)[nH]n1)C1CCOC1 (stereo unspecified)
#42 CCN(Cc1nc(C(c2ccccc2)c2ccccc2)no1)CC1CCCO1 (stereo unspecified)
#43 Cc1cccc(-c2cc(N)n(-c3ccc(C(=O)Nc4cccc(C(F)(F)F)c4)cc3)n2)c1
#44 COc1ccc(C(=O)N(CC(=O)N2c3ccccc3-n3cccc3C2c2cc(OC)ccc2OC)C2CC2)cc1 (stereo unspecified)
#45 CCC(C)n1c(C)c(C)n2c3c(=O)n(Cc4ccc(C)cc4)c(=O)n(C)c3nc12 (stereo unspecified)
#46 COc1ccc(NS(=O)(=O)c2ccc(Br)cc2)c(C(=O)NCc2ccccc2)c1
#47 CC(C)NC(=O)CNC(=O)COC(=O)c1ccccc1NC(=O)c1ccco1
#48 COC(=O)[C@@H]1CCCN1Cc1cnc2c(-c3ccccc3)cnn2c1
entry no.	41	42	43	44	45	46	47	48
NPYLR7 ag	2	9	-8	-1	0	3	-6	26
NPYLR7 ag max-min	0	12	-11	3	10	5	13	11

#49 O=C(NCc1ccc(C(F)(F)F)cc1)c1ccc(=O)[nH]c1
#50 Cc1cccnc1C(c1ccc(F)cc1)N(C)C(=O)C1CCN(CCOc2ccc(Cl)cc2Cl)CC1 (stereo unspecified)
#51 Ic1cccc(-c2nc(-c3ccccn3)no2)c1
#52 CCN(CC)Cc1cnc2c(C(=O)N(C)Cc3ccccn3)cnn2c1
#53 COC(C)c1ccc(-c2cc(C(=O)O)cc(S(=O)(=O)N3CCCC3)c2)cc1 (stereo unspecified)
#54 Cc1cccnc1CC(C)N(C)C(=O)Cn1[nH]c(=O)ccc1=O (stereo unspecified)
#55 Cc1ccccc1OCC(O)CN(Cc1cccn1C)CC1CCCO1 (stereo unspecified)
#56 Fc1ccccc1-c1noc(N2CCOCC2)c1CNCc1ccccc1
entry no.	49	50	51	52	53	54	55	56
NPYLR7 ag	-8	6	-1	7	7	2	34	3
NPYLR7 ag max-min	-8	-4	-3	2	7	1	28	-2

#57 CC(NC(=O)C1CCC(NC(=O)C2CCCC2)CC1)c1cccnc1 (stereo unspecified)
#58 O=C(NC(C(=O)N/N=C\c1cc([N+](=O)[O-])ccc1O)c1n[nH]c(=O)c2ccccc12)c1ccccc1 (stereo unspecified)
#59 O=C(CCCSc1nnc(Cc2ccccc2)n1-c1ccccc1)NCCc1ccc(Cl)cc1Cl
#60 COCC(C)(CNC(=O)c1occc1C)NC(=O)c1occc1C (stereo unspecified)
#61 COCCCN(Cc1c(-c2cccc(C)c2)noc1N1CCCC1)C(=O)COC
#62 O=C(N/N=C\c1ccccc1F)c1cc(-c2ccccc2)nc2ccccc12
#63 CCCN(CCC(=O)N1CCN(c2ccccc2F)CC1)c1nc(-c2cccc(Br)c2)nc2ccccc12
#64 CCC(N)CSc1ccc(C)c(C)c1 (stereo unspecified)
entry no.	57	58	59	60	61	62	63	64
NPYLR7 ag	2	10	18	0	1	-4	24	9
NPYLR7 ag max-min	0	18	22	-1	8	-4	22	7

#65 Cc1nc2ccccc2nc1CN1CCC(n2nccc2NC(=O)C2CCCC2)CC1
#66 COc1cccc(OCc2ccccc2)c1C(=O)NCCCc1ccccc1
#67 O=C(Nc1cnn(Cc2ccc(Cl)c(Cl)c2)c1)c1nc2ncccn2n1
#68 O=C1C2C3C=CC(C3)C2C(=O)N1Cc1ccc(F)cc1 (stereo unspecified)
#69 CC(C)(C)c1csc(CN2CCN(C(=O)CC3CCCCC3)CC2)n1
#70 COC(=O)c1cccc(OC(=O)c2cc3c(s2)CCCC3)c1
#71 Cc1[nH]c2ccccc2c1C1CCN(C(=O)C(C)OCC2CCCO2)CC1 (stereo unspecified)
#72 Cc1ccccc1OCC(=O)Nc1cccc(N2C(=O)c3cccc([N+](=O)[O-])c3C2=O)c1
entry no.	65	66	67	68	69	70	71	72
NPYLR7 ag	0	-6	2	-10	-10	2	4	1
NPYLR7 ag max-min	-2	-9	0	-13	-17	2	4	-2

#73 CCOC(=O)CCc1c(C)nc2ccc(C)cn2c1=O
#74 O=C(Cn1cnc2c(nnn2Cc2ccc(F)cc2)c1=O)c1ccc(Cl)cc1
#75 CCCc1n[nH]c(=O)n1Cc1ccccc1F
#76 COCc1ncc(CN2CCN(C(=O)c3ccc(OC)cc3)CC2)cn1
#77 CCOc1nc(Cl)nc(N2CCOCC2)n1
#78 Cc1ccc(NC(=O)C2CC(=O)N(C3CC3)C2)cc1C(F)(F)F (stereo unspecified)
#79 CCc1nn(-c2ccc(F)cc2)c(N2CCN(C(C)C)CC2)c1CN(CC(C)C)C(=O)c1ccc([N+](=O)[O-])cc1
#80 CC1CCCC(NC(=O)c2ccc(S(=O)(=O)N(C)C(C)C)cc2)C1 (stereo unspecified)
entry no.	73	74	75	76	77	78	79	80
NPYLR7 ag	-4	6	4	11	3	0	11	2
NPYLR7 ag max-min	-7	10	2	8	-1	2	21	0

#81 Cc1cc(C(=O)CSc2nnc(CN3CCCC3)o2)c(C)n1CC1CCCO1 (stereo unspecified)
#82 CCN(CC)CCNC(=O)c1n[nH]c(=O)c2ccccc12
#83 O=C(O)c1cc(Br)cc(S(=O)(=O)N2CCSCC2)c1
#84 CN(C(N)=O)c1ccc(OCc2ccn(-c3ccc(F)cc3)n2)cc1
#85 COc1cccc(Nc2nc(C(N)C(C)C)cs2)n1 (stereo unspecified)
#86 C=CCn1c(C)c(C)n2c3c(=O)n(Cc4cccc(Cl)c4)c(=O)n(C)c3nc12
#87 O=C(NC(C(=O)Nc1ccccc1)C1CCN(C(=O)c2ccc(Cl)cc2)CC1)c1ccc(F)cc1 (stereo unspecified)
#88 Cn1nnc2c(=O)n(CC(=O)NC(C)(C)C)cnc21
#89 COc1ccc(Br)c(NC(=O)c2cccc(Cl)c2)c1
#90 CC(C)[C@@H](C)n1c(CCc2ccccc2)n[nH]c1=O
#91 OC(COCc1ccco1)CN(Cc1ccc(F)cc1F)CC1CCCO1 (stereo unspecified)
entry no.	81	82	83	84	85	86	87	88	89	90	91
NPYLR7 ag	2	15	4	4	-6	4	18	0	5	16	23
NPYLR7 ag max-min	9	6	3	1	-13	2	21	6	4	6	19

Entries above that contain an NH in an aromatic ring (18):
#6 CCN(CCc1nc2ccc(OC)cc2[nH]1)C(=O)c1cc(C)nc(C)n1
#8 Cc1c(C(=O)N2CCCC(c3ccn[nH]3)C2)nnn1Cc1ccccc1 (stereo unspecified)
#12 CC(c1nc2ccccc2c(=O)[nH]1)N1CCN(S(=O)(=O)c2cccc(F)c2)CC1 (stereo unspecified)
#16 Cc1cnc(C(=O)N2CCc3c([nH]c4ccccc34)C2c2ccc(F)cc2)cn1 (stereo unspecified)
#26 CCCc1cc(C(=O)N2CCc3cc(OC)c(OC)cc3C2)n[nH]1
#27 Cc1nn2cc(-c3[nH]ncc3[N+](=O)[O-])cnc2c1C(N)=O
#29 CCC(C)C1c2c(n[nH]c2C)OC(=N)C1C#N (stereo unspecified)
#30 Cc1ccsc1[C@@H]1CCN(C(=O)CCc2nc3ccccc3[nH]c2=O)C[C@H]1O
#37 CCCN1C(=O)C(c2c(C(C)C)[nH]n(-c3ccc(Cl)c(Cl)c3)c2=O)=C([n+]2ccc(C)cc2)C1=O
#39 Cc1ccc2nc(CCNC(=O)[C@@]34CC[C@@](C)(OC3=O)C4(C)C)[nH]c2c1
entry no.	6	8	12	16	26	27	29	30	37	39
NPYLR7 ag	0	-4	11	7	4	-11	5	1	-7	-7
NPYLR7 ag max-min	-4	-4	15	4	1	-12	6	-5	3	-9

#41 O=C(Nc1cc(-c2ccc(I)cc2)[nH]n1)C1CCOC1 (stereo unspecified)
#49 O=C(NCc1ccc(C(F)(F)F)cc1)c1ccc(=O)[nH]c1
#54 Cc1cccnc1CC(C)N(C)C(=O)Cn1[nH]c(=O)ccc1=O (stereo unspecified)
#58 O=C(NC(C(=O)N/N=C\c1cc([N+](=O)[O-])ccc1O)c1n[nH]c(=O)c2ccccc12)c1ccccc1 (stereo unspecified)
#71 Cc1[nH]c2ccccc2c1C1CCN(C(=O)C(C)OCC2CCCO2)CC1 (stereo unspecified)
#75 CCCc1n[nH]c(=O)n1Cc1ccccc1F
#82 CCN(CC)CCNC(=O)c1n[nH]c(=O)c2ccccc12
#90 CC(C)[C@@H](C)n1c(CCc2ccccc2)n[nH]c1=O
entry no.	41	49	54	58	71	75	82	90
NPYLR7 ag	2	-8	2	10	4	4	15	16
NPYLR7 ag max-min	0	-8	1	18	4	2	6	6
